Sfp inh = inhibitors of Bacillus subtilis Sfp phosphopantetheinyl transferase; Q9F4F7; Biochemical Sfp PPTase activity, qHTS; AID 1490; Potency, µM, for inactives: max response, negative = inhibition, most hits filed as inhibitors; hit rate 3.5% among 310,000; active means well fitted inhibition curve with a large enough effect; inconclusive means small, poorly fitted or top-dose-only effect, or another doubt; inactive means no such curve, though single readings can be large or run the other way;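 further: the enzyme is Sfp with the accession as filed and its product quenches rhodamine fluorescence; potency means the concentration at half of the fitted maximal effect; 0% = enzyme reaction without inhibitor and -100% = no enzyme wells; top concentration of the series not given in the record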
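Step 1, compound plus 15 nM Sfp-PPTase, 15 min, room temperature. Step 2, add rhodamine-CoA (5 uM) and BHQ-2-YbbR (12.5 uM). Step 3, read 525/598 nm fluorescence at 0 and 30 min.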
Menin MLL FP FL = inhibitors of human menin-MLL interaction, wild-type MLL peptide | Fluorescence polarization, fluorescein-MLL peptide displacement from menin | FP activity change, % at 61.4 µM | 290,000 tested, under 10 active | AID 1766; inconclusive = falling polarisation curve, or a change in total fluorescence; inactive = total fluorescence flat and polarisation flat or rising; no compound was filed as active; the % refers to the polarisation; negative = inhibition;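 further: % of control where 0% means no effect; inhibitors lower the polarisation; unlabelled MLL peptide was the positive control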
CtBP-E1A inh = inhibitors of CtBP/E1A interaction. AlphaScreen GST-E1A/His-CtBP binding, 1536-well; active compounds read low; control for the full effect not named in the record. activity change, % (concentration not given with the values). hit rate 0.49% among 340,000; in the data active means activity change below about -65%; inconclusive means about -30% to -65%; inactive means above about -30%; further: on the % scale 0 is the no-effect control and ±100 the full control effect
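GST-E1A and His-tagged CtBP (125 nM each as 5X stock) were preincubated with pin-transferred compound for 2 h at 37 °C in the dark, then glutathione donor and nickel acceptor beads were added for 1 h before AlphaScreen reading.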
TRPV1 PAM = human TRPV1 potentiation; Q8NER1; TRPV1-expressing cells, Fluo-8 calcium influx, capsaicin EC20 potentiation; host cell line not named in the record; control for the full effect not named in the record; potentiation, % at 8.33 µM; hit rate 0.02% among 320,000; active means potentiation above 80%; inconclusive means 30% to 80%; inactive means below 30%; further: 0% is about no effect
Target sequence (Q8NER1 whole entry, looked up): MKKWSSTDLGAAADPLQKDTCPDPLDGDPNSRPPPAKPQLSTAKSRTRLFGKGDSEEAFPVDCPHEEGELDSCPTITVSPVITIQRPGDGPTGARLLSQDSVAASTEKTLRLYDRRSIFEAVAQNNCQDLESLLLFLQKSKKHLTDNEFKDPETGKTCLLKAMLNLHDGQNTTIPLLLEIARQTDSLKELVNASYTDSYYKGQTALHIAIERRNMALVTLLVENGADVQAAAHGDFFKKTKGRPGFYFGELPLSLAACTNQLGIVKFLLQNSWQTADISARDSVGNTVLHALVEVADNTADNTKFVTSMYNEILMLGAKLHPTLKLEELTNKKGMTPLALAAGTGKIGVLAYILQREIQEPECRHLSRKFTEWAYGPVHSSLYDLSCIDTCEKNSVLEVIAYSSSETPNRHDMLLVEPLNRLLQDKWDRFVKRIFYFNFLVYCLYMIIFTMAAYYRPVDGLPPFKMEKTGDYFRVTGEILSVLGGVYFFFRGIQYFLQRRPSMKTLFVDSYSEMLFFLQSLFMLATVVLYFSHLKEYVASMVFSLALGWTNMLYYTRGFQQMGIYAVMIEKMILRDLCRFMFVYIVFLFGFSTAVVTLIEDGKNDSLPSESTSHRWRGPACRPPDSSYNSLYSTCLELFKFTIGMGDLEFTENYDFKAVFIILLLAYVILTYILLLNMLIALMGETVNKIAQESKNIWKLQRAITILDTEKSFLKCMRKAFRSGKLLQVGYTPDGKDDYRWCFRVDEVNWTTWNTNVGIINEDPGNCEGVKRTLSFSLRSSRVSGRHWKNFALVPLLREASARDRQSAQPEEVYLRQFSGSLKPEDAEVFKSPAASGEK
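Fluo-8 calcium influx in TRPV1-expressing cells, kinetic read (ex 480/em 520 nm). Compound added and read 3 min for agonist activity, followed by capsaicin at EC20 final and 2 min further read for enhancement.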
ClpP mod = qHTS Assay for Activators of ClpP | AID 651965, 2013 | purified B. subtilis ClpP, FRET peptide cleavage, 20 min | ATP-dependent Clp protease proteolytic subunit (Bacillus subtilis (strain 168)), P80244 | hit rate 1.9% among 340,000 | Potency, µM (titrated, usually from 57.5 µM), without a hit: top-dose activity change, negative = active; active = well fitted falling curve with a large enough effect; inconclusive = small, poorly fitted or top-dose-only effect; inactive = no such curve, though single readings can be large or run the other way; further: potency means the concentration at half of the fitted maximal effect; the source files actives as falling curves though it sought activators and does not explain the sign; nearly all actives have a fitted effect of over 65% in size; many hits overshoot -100%
Target sequence (P80244 whole entry, looked up): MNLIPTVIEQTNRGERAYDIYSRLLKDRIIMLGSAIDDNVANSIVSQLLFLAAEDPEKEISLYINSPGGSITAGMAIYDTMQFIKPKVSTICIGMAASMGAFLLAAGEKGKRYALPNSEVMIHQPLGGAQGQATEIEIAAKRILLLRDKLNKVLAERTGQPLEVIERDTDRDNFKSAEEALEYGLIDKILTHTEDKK
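Buffer: 100 mM Tris/HCl pH8, 100 mM KCl, 0.05% low protease BSA, 2.5% glycerol, 0.01% Tween-20. ClpP 10 microg/mL final; 20 min RT; delta FRET normalized to ADEP and DMSO controls.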
gsp antag = antagonists of gsp mutant (McCune-Albright syndrome) | gsp-mutant cells, cAMP HTRF, 30 min; control for the full effect not named in the record | Potency, µM (doses to about 76.9 µM), inactives show at the top dose activity change, negative = inhibition, usual class: inhibitors | hit rate 0.4% among 340,000; active = falling curve of any shape with a large fitted effect; inconclusive = falling curve, mostly with a smaller effect; inactive = flat or rising curve; cell line not stated here;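 further: intracellular cAMP measured with PDE inhibitor Ro 20-1724 present during compound exposure; potency means the concentration at half of the fitted maximal effect; on the % scale 0 is the no-effect control and ±100 the full control effect; nearly all actives have a fitted effect of over 65% in size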
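Cells, 2000/well, grown 16–24 h in DMEM 10% FBS with 0.5 mg/ml G418, then compounds plus […] (300 uM addition stock), 30 min at 37C. cAMP read by HTRF (cAMP-d2 and anti-cAMP antibody-K in lysis buffer) after 30 min RT.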
gsp ag = agonists of gsp mutant (McCune-Albright syndrome) | gsp mutant cells, cAMP HTRF, 30 min; control for the full effect not named in the record | Potency, µM (highest dose often 76.9 µM), inactives show at the top dose activation (cAMP increase), usual class: activators | hit rate 0.13% among 340,000; active = well fitted activation curve with a large enough effect; inconclusive = small, poorly fitted or top-dose-only effect, or another doubt; inactive = no such curve, though single readings can be large or run the other way; cell line not stated here;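 further: phosphodiesterase inhibitor Ro 20-1724 added with compounds to block cAMP breakdown; potency means the concentration at half of the fitted maximal effect; nearly all actives have a fitted effect of over 60% in size; about a fifth of the inactives were tested at one dose only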
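Cells in DMEM/10% FBS with G418 were pretreated with compounds in DMSO plus […] (300 uM stock) for 30 min at 37C. cAMP was measured by HTRF (cAMP-d2 plus anti-cAMP antibody-K) after 30 min at room temperature.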
The depositor's hits bear a star; & = joins results of further samples; [ ] = another dose, or the depositor's remark.

For CC12CC(NC(=O)N1c1cccc(C(=O)NCc3ccc4c(c3)OCO4)c1)c1cc(Cl)ccc1O2 (stereo not drawn) the results were Sfp inh -10%, Menin MLL FP FL 2.4, CtBP-E1A inh 3, TRPV1 PAM 13, ClpP mod -0.7%, gsp antag inconclusive and gsp ag -5%.
For Cc1ccc(C)c(N/C=C(\C#N)c2nc3ccccc3o2)c1 the results were CtBP-E1A inh 0, ClpP mod 49%, gsp antag 5% and gsp ag 8%.
For C=CC(COCc1ccccc1)N([C@@H](Cc1ccccc1)C(=O)OC)S(=O)(=O)c1ccccc1Br (stereo partly drawn) the results were CtBP-E1A inh 10, ClpP mod -5.5%&0.2%, gsp antag 5% and gsp ag 27%.
`COc1ccc(CN(C)C(=O)c2ccc(NS(=O)(=O)c3ccc4[nH]c(=O)[nH]c4c3)cc2)c(OC)c1OC` gave ClpP mod -0.6%, gsp antag 8% and gsp ag inconclusive.
For CCCOc1ccc(/C(O)=C2/C(=O)C(=O)N(CCCn3ccnc3)C2c2ccco2)cc1 (stereo not drawn) the results were Sfp inh 10%, Menin MLL FP FL 5.6, CtBP-E1A inh 3, TRPV1 PAM -2, ClpP mod -0.4%, gsp antag 12% and gsp ag 23%.
Screening Cc1noc(NS(=O)(=O)c2ccc(NC(=O)C34CC5CC(C3)CC(n3cnc(Br)n3)(C5)C4)cc2)c1C returned Sfp inh 8%, CtBP-E1A inh 1, TRPV1 PAM 22, ClpP mod -3.8%, gsp antag 3% and gsp ag 4%.
For C[C@H](CO)N1C[C@H](C)[C@@H](CN(C)S(=O)(=O)c2cccc(C#N)c2)OCc2cn(nn2)CCCC1=O the results were CtBP-E1A inh 5, ClpP mod 0.7% and gsp ag -23%.
CC1CCCCN1C(=O)CNCC1CCCO1 (stereo not drawn) was read as Sfp inh 16%, Menin MLL FP FL -0.8, CtBP-E1A inh -1, TRPV1 PAM 0 and gsp ag -1%[15.4 µM].
For CCn1cnc2sc(C(=O)Nc3ccc4c(c3)OCO4)c(C)c2c1=O the results were Sfp inh 9%, Menin MLL FP FL 2.2, CtBP-E1A inh -19, TRPV1 PAM 7, ClpP mod -1.6%, gsp antag -7% and gsp ag 5%.
Screening O=C(Nc1ccncc1)c1ccc(Cl)c([N+](=O)[O-])c1 returned Sfp inh 12%, Menin MLL FP FL 0.0, CtBP-E1A inh 2, TRPV1 PAM -10, ClpP mod 0.7%, gsp antag -21% and gsp ag -6%.
CC1=C(C(=O)Nc2ccccc2C(=O)N2CCN(c3ccccc3)CC2)SCCO1 was read as CtBP-E1A inh 0, ClpP mod 0.7% and gsp ag 4%.
Oc1ccc(/C=N/n2c(C3CCCCC3)n[nH]c2=S)c(O)c1 was read as Sfp inh 0.18µM*, Menin MLL FP FL 8.1, CtBP-E1A inh -22, TRPV1 PAM 9, ClpP mod -3.5%, gsp antag -23% and gsp ag 5%.
CCN(CC)S(=O)(=O)c1ccc(N/N=C/c2cccnc2)nc1 was read as Sfp inh 9%, Menin MLL FP FL 2.1, TRPV1 PAM -6, ClpP mod 0.0%, gsp antag 3% and gsp ag -4%.
`Cn1ccnc1SCC(=O)Nc1ccc2c(c1)OCO2` gave Sfp inh -11%, Menin MLL FP FL 2.3, CtBP-E1A inh -5, TRPV1 PAM 8, ClpP mod 0.8%, gsp antag 3% and gsp ag inconclusive.
Screening CC(=O)c1cccc(NS(=O)(=O)c2c(C)noc2C)c1 returned Sfp inh 24%, Menin MLL FP FL 1.5, CtBP-E1A inh 9, TRPV1 PAM 22, ClpP mod 0.0%, gsp antag 8% and gsp ag -10%[15.4 µM].
For COc1ccc(S(=O)(=O)N2CCOCC2)cc1C(C)C the results were Sfp inh -9%, Menin MLL FP FL 1.2, CtBP-E1A inh 6, TRPV1 PAM -4, ClpP mod 1.0%, gsp antag -3% and gsp ag -25%.
For Cc1cccc(-n2ncc3c(NCc4ccccc4)ncnc32)c1 the results were Sfp inh 7%, Menin MLL FP FL -4.0, CtBP-E1A inh 3, TRPV1 PAM inconclusive, ClpP mod 4.6%, gsp antag 13% and gsp ag 6%.
C=CCNC(=O)CN1C2CCCC1CC(NC(=O)c1ccccc1C)C2 (stereo not drawn) was read as Sfp inh 12%, Menin MLL FP FL -1.3, CtBP-E1A inh -1, TRPV1 PAM 1, ClpP mod 0.8%, gsp antag 16% and gsp ag -20%.
O=C(O)c1cc(-c2ccc(Cl)cc2)n(-c2ccc(Cl)cc2)n1 was read as Sfp inh 22%, Menin MLL FP FL 1.2, CtBP-E1A inh 8, TRPV1 PAM -1, gsp antag -11% and gsp ag inconclusive.
Screening CCS(=O)(=O)c1nc(S(=O)(=O)c2ccc(C)cc2)c(N2CCCC(C)C2)s1 (stereo not drawn) returned Sfp inh 12%, CtBP-E1A inh 5, TRPV1 PAM -14, ClpP mod -0.3%, gsp antag 10% and gsp ag 31%.
O=[N+]([O-])c1ccc(NNS(=O)(=O)c2cc(Cl)ccc2Cl)nc1 was read as Sfp inh 35µM*, CtBP-E1A inh -29, TRPV1 PAM -20, ClpP mod 0.9%, gsp antag -13% and gsp ag inconclusive.
For CN(c1ccccc1C(=O)Nc1ccc(F)c(Cl)c1)S(C)(=O)=O the results were Sfp inh 19%, Menin MLL FP FL 0.6, CtBP-E1A inh 2, TRPV1 PAM 0, gsp antag -2% and gsp ag -19%.
N#CCSc1nnc(C2CCCCC2)n1Cc1ccccc1 was read as Sfp inh 13%, Menin MLL FP FL 0.2, CtBP-E1A inh 5, TRPV1 PAM 4, ClpP mod 1.2%, gsp antag -25% and gsp ag 10%.
For CCOC(=O)C1=C(C)N(C)C(C)=C(C(=O)OCC)C1c1ccncc1 the results were Sfp inh 7%, Menin MLL FP FL 5.7, CtBP-E1A inh -3, TRPV1 PAM 0, ClpP mod -2.5%, gsp antag -22% and gsp ag 24%.
Screening O=C(CCC(=O)CCN1CCCCC1)CCN1CCCCC1 returned Sfp inh -4%, Menin MLL FP FL -9.2, CtBP-E1A inh -2, TRPV1 PAM -7, ClpP mod -0.8%, gsp antag 8% and gsp ag 15%.
Screening Cc1cccc(-c2nnnn2-c2cccc(C)c2)c1 returned Sfp inh -15%, Menin MLL FP FL -0.1, CtBP-E1A inh 7, TRPV1 PAM 14, gsp antag -2% and gsp ag 10%[15.4 µM].
CCOc1ccc(/C=N/Nc2nc(C)cs2)c(O)c1 was read as Sfp inh inconclusive, Menin MLL FP FL 6.7, CtBP-E1A inh inconclusive, TRPV1 PAM 4, ClpP mod -7.3%, gsp antag 9% and gsp ag 3%.
`CN(CCc1ccccc1)C(=O)c1ccc(NC(=O)Cc2cccc(NC(=O)C3CCN(C(=O)C4CCC4)CC3)c2)cc1` gave CtBP-E1A inh -1, ClpP mod 2.4% and gsp antag 0%.
CCc1ccc2oc(=O)cc(CN3CCCCC3C)c2c1 (stereo not drawn) was read as Sfp inh 4%, Menin MLL FP FL 1.0, CtBP-E1A inh 13, TRPV1 PAM 2, ClpP mod -1.4%, gsp antag inconclusive and gsp ag 0%.
O=C(c1ccncc1)N1CCN(S(=O)(=O)c2ccccc2F)CC1 was read as CtBP-E1A inh 4, ClpP mod 0.3%, gsp antag 6% and gsp ag -2%[15.4 µM].
COc1cccc(CNC(=O)c2cc(=O)[nH]c3ccc(S(=O)(=O)N4CCOCC4)cc23)c1 was read as TRPV1 PAM -7, ClpP mod -18%, gsp antag 4% and gsp ag 4%.
Screening CNC(=S)N1CCc2sccc2C1C (stereo not drawn) returned Sfp inh 14%, Menin MLL FP FL -1.5, CtBP-E1A inh 1, TRPV1 PAM 5, ClpP mod 0.7%, gsp antag 6% and gsp ag 1%[15.4 µM].
For Cc1cccc[n+]1CCCCCCCCCC[n+]1ccccc1C the results were Sfp inh 5%, Menin MLL FP FL -0.2, CtBP-E1A inh -2, TRPV1 PAM 13, ClpP mod 0.8%, gsp antag 6% and gsp ag 12%.
`O=C(N/N=C/c1ccc([N+](=O)[O-])o1)c1cc(-c2ccc(-c3ccccc3)cc2)nc2ccccc12` gave Sfp inh -2%, Menin MLL FP FL -1.3, CtBP-E1A inh -27, TRPV1 PAM 2, gsp antag 22% and gsp ag -27%.
Cn1c(C(=O)OC(C(=O)NCC2CCCO2)c2cccnc2)cc2sccc21 (stereo not drawn) was read as Sfp inh 12%, Menin MLL FP FL -1.9, TRPV1 PAM 26, ClpP mod -5.2%, gsp antag 1% and gsp ag inconclusive.
Screening N#C/C(=C\c1c(Cl)cccc1Cl)c1nc2ccccc2[nH]1 returned Sfp inh -13%, Menin MLL FP FL -0.9, CtBP-E1A inh 1, TRPV1 PAM -27, ClpP mod -14%, gsp antag -9% and gsp ag inconclusive.
`O=C(CCC(=O)Nc1cccc(Cl)c1)N/N=C/c1cc([N+](=O)[O-])ccc1O` gave Sfp inh 3%, Menin MLL FP FL 5.5, CtBP-E1A inh -2, TRPV1 PAM -1, gsp antag -14% and gsp ag 6%[15.4 µM].
Screening COc1cc([N+](=O)[O-])ccc1NC(=S)NNC(=O)CCC(=O)Nc1ccccc1Cl returned Sfp inh 1%, CtBP-E1A inh -7, TRPV1 PAM 14, ClpP mod 1.4%, gsp antag -14% and gsp ag 3%.
Screening CCS(=O)(=O)NCCc1cc2ccc(C)cc2[nH]c1=O returned Sfp inh 14%, Menin MLL FP FL 6.8, CtBP-E1A inh -2, TRPV1 PAM -1, ClpP mod 28µM*, gsp antag 1% and gsp ag -32%[inhibitor].
For O=C(NCCN1CCOCC1)c1ccc(F)cc1 the results were Sfp inh -2%, Menin MLL FP FL 4.9, CtBP-E1A inh -6, TRPV1 PAM 9, ClpP mod -2.1%, gsp antag 8% and gsp ag 2%.

In the list so far, these have bromine:
For C=CC(COCc1ccccc1)N([C@@H](Cc1ccccc1)C(=O)OC)S(=O)(=O)c1ccccc1Br (stereo partly drawn) the results were CtBP-E1A inh 10, ClpP mod -5.5%&0.2%, gsp antag 5% and gsp ag 27%.
Screening Cc1noc(NS(=O)(=O)c2ccc(NC(=O)C34CC5CC(C3)CC(n3cnc(Br)n3)(C5)C4)cc2)c1C returned Sfp inh 8%, CtBP-E1A inh 1, TRPV1 PAM 22, ClpP mod -3.8%, gsp antag 3% and gsp ag 4%.

High-throughput results: PubChem, National Center for Advancing Translational Sciences (NCATS)
